Screening results: PubChem, National Center for Advancing Translational Sciences (NCATS)
Cruzain inh noDet – inhibitors of Trypanosoma cruzi cruzain without detergent | hit rate 2.3% among 200,000 | Potency, µM, for inactives: max response, negative = inhibition, hits mostly inhibitors | purified cruzain, Z-FR-AMC fluorescence, no detergent | AID 1476 | P25779;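 further: plate controls were enzyme without inhibitor for no effect and buffer without enzyme for full effect; nearly all actives have a fitted effect of over 40% in size; top concentration of the series not given in the record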
Target sequence (P25779 123-467 limits assumed): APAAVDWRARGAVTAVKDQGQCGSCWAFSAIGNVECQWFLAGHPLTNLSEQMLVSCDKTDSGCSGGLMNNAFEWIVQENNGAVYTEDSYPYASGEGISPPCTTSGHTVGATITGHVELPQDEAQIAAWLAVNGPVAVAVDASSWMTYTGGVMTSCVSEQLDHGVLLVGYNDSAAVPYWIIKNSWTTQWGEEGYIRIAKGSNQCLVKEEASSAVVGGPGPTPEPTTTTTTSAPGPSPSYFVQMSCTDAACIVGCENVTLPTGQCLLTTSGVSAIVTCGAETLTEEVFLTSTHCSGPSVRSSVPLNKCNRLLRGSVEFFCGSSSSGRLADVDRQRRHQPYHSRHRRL
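Purified cruzain at 1.5 nM, pre-incubated 15 min with compound at room temperature in 100 mM sodium acetate pH 5.5, 5 mM DTT, 0.00005% Triton X-100. Reaction started with 2 uM Z-FR-AMC; AMC fluorescence increase over 60 s gives rate.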
StopGo reporter – lowers the luciferase signal of an FMDV 2A StopGo reporter; hit rate 1.2% among 410,000; human cells with a luciferase reporter of 2A StopGo recoding; control for the full effect not named in the record; Potency, µM (series often up to 57.9 µM), for inactives: top-dose signal change, negative = less light; AID 1159524; active = well fitted falling curve with a large enough effect; inconclusive = small, poorly fitted or top-dose-only effect; inactive = no such curve, though single readings can be large or run the other way; tested in HEK293T cells; further: nearly all actives have a fitted effect of over 45% in size; luciferase light after 4 h
Cruzain Triton – cruzain (T. cruzi) inhibition with detergent. P25779. AID 1478. purified cruzain, Z-FR-AMC fluorescence, 0.01% Triton. Potency, µM, inactives show max response, negative = inhibition, hits mostly inhibitors. hit rate 0.43% among 200,000;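 further: plate controls were neutral wells for no effect and buffer without enzyme for full effect; nearly all actives have a fitted effect of over 40% in size; top concentration of the series not given in the record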
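In this qHTS format, compounds are incubated with 1.5 nM cruzain for 15 min at room temperature before 2 uM Z-FR-AMC is added. Release of AMC is followed at 360/450 nm, and progress is taken as the 60 s fluorescence difference.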
Starred values were filed as active, the others as inactive; u = inconclusive; & = joins results of further samples; [ ] = remark or other dose. Unless noted, the call rests on the fitted dose curve; in most records, active means well fitted curve in the direction sought with a large enough effect; inconclusive means small, poorly fitted or top-dose-only effect, or another doubt; inactive means no such curve, though single readings can be large; an effect the other way counts as inactive or inconclusive. Unless noted, on the % scale 0 is the no-effect control and ±100 the full control effect; potency means the concentration at half of the fitted maximal effect. Not all compounds are listed. The share of hits here may be higher or lower than overall.

mol	Cruzain inh noDet	StopGo reporter	Cruzain Triton
CO[C@@]12C[C@@H](COC(=O)c3cncc(Br)c3)CN(C)[C@H]1Cc1cn(C)c3cccc2c13	1%&-4%	-15%	0.0%&0.9%
COCCn1c(=O)c(C)nc2cnc(OCc3ccccc3)nc21	-6%	-18%	1.7%
CN1CCN(c2ncc3nc(-c4ccc(F)cc4)c(=O)n(Cc4cccs4)c3n2)CC1	-6%	-8%	-2.9%
CN1CCN(c2ncc3nc(-c4cc(F)cc(F)c4)c(=O)n(Cc4cccs4)c3n2)CC1	-3%	-7%	-2.5%
CC(=O)N1CCC2(CC1)CCN(C(c1ccccc1)c1ccccc1)CC2	-2%	-4%	0.7%
c1nc(NCCN2CCOCC2)c2cc(-c3ccc4c(c3)OCO4)ccc2n1	-10%	13%	-4.9%
COc1ccc(-c2nc3cnc(N4CCNCC4)nc3n(C3CC3)c2=O)cc1	-3%	4%	-2.7%
CCCCC(C)(O)C/C=C/[C@H]1[C@H](O)CC(=O)[C@@H]1CCCCCCC(=O)O (stereo partly drawn)	-5%	-21%[6.7 µM]	1.2%
COCCn1c(=O)c(-c2ccccc2)nc2cnc(N3CCNCC3)nc21	0%	-9%	-21%
C=C[C@]1(C)CC(=O)[C@@]2(O)[C@@]3(C)C(O)CCC(C)(C)C3C(O)C(OC(C)=O)[C@@]2(C)O1 (stereo partly drawn)	3%	-13%	-0.9%
Cc1noc(C)c1-c1cncnc1Nc1ccccc1	6%	3%	3.6%
N[C@H](C(=O)O)c1ccc(C(=O)O)cc1	4%	6%&1%	6.7%

mol	Cruzain inh noDet	StopGo reporter	Cruzain Triton
CC(=O)N1CCC2(CC1)CN(C(=O)Nc1cccc(C#N)c1)C2	1%	4%	0.3%
CC(=O)OC1C[C@@]2(C)C(c3ccoc3)OC(=O)C3O[C@@]32[C@]2(C)C(OC(C)=O)CC3C(C)(C)C(OC(C)=O)CC(OC(C)=O)[C@@]3(C)C12 (stereo partly drawn)	u	-10%	-2.4%
COc1ncc2nc(CCc3ccccc3)c(=O)n(CCC#N)c2n1	2%	-11%	2.0%
CC(=O)Oc1cc(OC(C)=O)c2c(c1)OC(c1ccc(OC(C)=O)c(OC(C)=O)c1)C(OC(C)=O)C2 (stereo not drawn)	u	2%&-9%	-4.1%&-1.8%
Nc1ncnc2c1nc(Br)n2C1CC(O)C(CO)O1 (stereo not drawn)	-5%	-13%	5.2%
CCNc1ncc2nc(-c3ccc(Cl)cc3)c(=O)n(CCC#N)c2n1	5%	-5%	1.8%
NC(Cn1ccc(=O)c(O)c1)C(=O)O (stereo not drawn)	-6%	3%	0.6%
CC(C)C(C)/C=C/C(C)C1CCC2C3=CCC4CC(=O)CC[C@@]4(C)C3CC[C@]21C (stereo partly drawn)	-2%	-1%	1.2%
CC(C)=CCCC1=CC[C@H](C(=O)O)[C@H](C(=O)O)C1	-1%	-20%	4.1%
CCCCCCCCCCCCC(O)C(=O)O (stereo not drawn)	6%	7%[6.7 µM]	-2.2%
C[C@](N)(C(=O)O)c1ccc(-c2nn[nH]n2)cc1	0%	-2%	-1.6%
CC(C)NC(=O)N1CCCC2(CCN(C(=O)c3cccc(F)c3)CC2)C1	1%	0%	1.4%

mol	Cruzain inh noDet	StopGo reporter	Cruzain Triton
COc1cccc(Cn2c(=O)cnc3cnc(Nc4cccc(OC)c4)nc32)c1	-28%	u	-6.5%
Cc1noc(C)c1C(=O)N1CCC2(CCCN(C(=O)Nc3cccc(F)c3)C2)CC1	0%	-10%	0.1%
COc1cccc(-c2ccc3ncnc(NCCc4c[nH]c5ccc(OC)cc45)c3c2)c1	u	u	-3.6%
CCCCC[C@H](O)/C=C/[C@H]1C=CC(=O)[C@@H]1CCCCCCC(=O)O	9%	-8%[6.7 µM]	5.9%
COCC(=O)N1CCC2(CCCN(C(=O)Nc3cccc(F)c3)C2)CC1	-1%	8%	1.7%
COc1cccc(-c2ccc3ncnc(NC4CCNCC4)c3c2)c1	2%	-11%	-1.6%
CCCC1CC(C(=O)N[C@H](C(C)O)C2OC(SC)[C@@H](O)C(O)C2O)N(C)C1 (stereo partly drawn)	12%	-4%	-4.4%
COCC(=O)N1CCC2(CCCN(c3cccc(-c4ccccc4)c3)C2)CC1	u	-7%	-7.9%
NC1(C(=O)O)CC(C(=O)O)C1 (stereo not drawn)	-3%&-2%	-10%&3%&1%	2.0%&-2.1%
O=C(Nc1ccccc1)N1CCC2(CC1)CCN(C(=O)c1cccc(F)c1)CC2	4%	-4%	7.3%
COc1ccc(-n2c(=O)c(-c3ccc(Cl)cc3)nc3cncnc32)cc1	-4%	-2%	0.9%
CN(C)c1ncc2nc(-c3ccc(F)cc3)c(=O)n(CCc3ccccc3)c2n1	3%	4%	0.2%

mol	Cruzain inh noDet	StopGo reporter	Cruzain Triton
CC(C)NC(=O)N1CC[C@@]2(CCCN(C(=O)c3cc(C(F)(F)F)cc(C(F)(F)F)c3)C2)C1	u	-3%	1.7%
Cc1noc(C)c1C(=O)N1CCC2(CCCN(Cc3ccc(C#N)cc3)C2)CC1	-7%	-12%	6.9%
Clc1ccc([C@@H]2C[C@H]3CC[C@@H]2N3)cn1	3%	-12%	2.6%
O=c1c(CCc2ccccc2)nc2cncnc2n1Cc1ccccc1Cl	3.2µM*	22%	-5.3%
CC(=O)N1CCC2(CCCN(c3ccc(-c4ccccc4)cc3)C2)CC1	u	-29%	-4.9%
c1ccc(N2CCCC3(CCNCC3)C2)nc1	-15%	-15%	-3.5%
Cc1cccc(CNc2ccnc(-c3ccccc3Cl)n2)c1	17%	-4%	-9.1%
CCC1OC(=O)C(C)[C@@H](O[C@H]2C[C@@](C)(OC)C(O)C(C)O2)C(C)[C@@H](O[C@@H]2OC(C)CC(N(C)C)C2O)[C@@](C)(O)CC(C)C2NC(COCCOC)O[C@H](C2C)[C@@]1(C)O (stereo partly drawn)	-1%	7%	-1.4%
CC1=C2C(=CO[C@H](C)[C@H]2C)C(=O)C(C(=O)O)=C1O	-10%	-7%	-1.8%
c1cncc(CNc2ncncc2-c2cccnc2)c1	8%	-8%	1.0%
Cn1c(=O)c(-c2ccccc2)nc2cnc(OCc3ccccc3)nc21	-2%	-14%	-1.4%
COc1ccc(-n2c(=O)c(-c3ccc(F)cc3)nc3cnc(N4CCNCC4)nc32)cc1	-12%	-7%	-1.0%

mol	Cruzain inh noDet	StopGo reporter	Cruzain Triton
N#CCCn1c(=O)c(-c2cc(F)cc(F)c2)nc2cnc(Oc3cccc(Cl)c3)nc21	-10%	u	-0.6%
COCCn1c(=O)c(-c2ccccc2)nc2cnc(N(C)C)nc21	3%	-10%	-2.2%
COC(=O)N1CCC[C@@]2(CCN(Cc3cc(C(F)(F)F)cc(C(F)(F)F)c3)C2)C1	14%	2%	3.2%
CCCCCC(=O)O[C@H](CC(=O)O)C[N+](C)(C)C	3%	-21%	3.7%
CCCCC[C@@H](/C=C/C=C\CCCCCCCC(=O)O)OO	-4%	-8%[0.463 µM]	4.0%
O=c1cnc2cnc(Nc3ccccc3)nc2n1C1CC1	-21%	6%	-1.7%
CCOP(=S)(OCC)SCn1c(=O)oc2cc(Cl)ccc21	-11%	-4%	-6.4%
CNc1nc(-c2cccc(NS(C)(=O)=O)c2)nc2ccccc12	-10%	-14%	0.2%
COCC(=O)N1CCC2(CC1)CCN(c1ncccn1)CC2	2%	11%	2.0%
CCNc1ncc2nc(-c3ccc(Cl)cc3)c(=O)n(Cc3cccc(OC)c3)c2n1	-8%	6%	-0.6%
COc1c(O)cc2c(-c3ccccc3)cc(=O)oc2c1OC	4%	4%	0.4%
O=c1cnc2cnc(Oc3ccccc3)nc2n1C[C@H]1CCCO1	-8%	-8%	-2.5%

5 consecutive entries from above, for reference:
mol	Cruzain inh noDet	StopGo reporter	Cruzain Triton
CC(=O)N1CCC2(CCCN(c3ccc(-c4ccccc4)cc3)C2)CC1	u	-29%	-4.9%
c1ccc(N2CCCC3(CCNCC3)C2)nc1	-15%	-15%	-3.5%
Cc1cccc(CNc2ccnc(-c3ccccc3Cl)n2)c1	17%	-4%	-9.1%
CCC1OC(=O)C(C)[C@@H](O[C@H]2C[C@@](C)(OC)C(O)C(C)O2)C(C)[C@@H](O[C@@H]2OC(C)CC(N(C)C)C2O)[C@@](C)(O)CC(C)C2NC(COCCOC)O[C@H](C2C)[C@@]1(C)O (stereo partly drawn)	-1%	7%	-1.4%
CC1=C2C(=CO[C@H](C)[C@H]2C)C(=O)C(C(=O)O)=C1O	-10%	-7%	-1.8%

(next part)
mol	Cruzain inh noDet	StopGo reporter	Cruzain Triton
COc1ccc(NC(=O)N2CC3(CCN(S(=O)(=O)c4ccccc4)CC3)C2)cc1	-4%	-1%	-6.8%
O=C(Nc1cccc(F)c1)N1CC[C@@]2(CCCN(C(=O)c3cc(C(F)(F)F)cc(C(F)(F)F)c3)C2)C1	u	-7%	-8.4%
O=C(Nc1ccccc1)N1CC2(CCN(C(=O)c3cccc(F)c3)CC2)C1	-3%	-4%	2.0%
C[C@@H](CN(C)C[C@H]1C(=O)O[C@@H]2C[C@@]3(C)CCC[C@]4(CO4)C3CC21)[C@H](O)c1ccccc1 (stereo partly drawn)	3%	-8%	3.4%
Clc1ccccc1CNCC1CCC(CNCc2ccccc2Cl)CC1 (stereo not drawn)	-4%	-9%	0.0%
CCOc1ccc(C(=O)c2ccc(O)c(O)c2O)cc1	-12%	45%[activator]	-2.0%
C=C(C)[C@H]1C2C(=O)O[C@H]1[C@H]1OC(=O)[C@@]34O[C@@H]3C[C@]2(O)[C@@]14C	1%	2%	5.1%
O=C(c1ccncc1)N1CCC2(CCCN(C(c3ccccc3)c3ccccc3)C2)CC1	18%	-21%	-4.4%
Cn1cccc1C(=O)N1CCC[C@@]2(CCN(C(=O)Nc3cccc(F)c3)C2)C1	1%	0%	5.4%
Cc1noc(C)c1-c1nccc(NCc2ccccc2)n1	-8%	-34%	-0.5%
CS(=O)(=O)Nc1cccc(-c2nc(NCCN3CCOCC3)c3ccccc3n2)c1	-2%	1%	3.2%
O=c1c(-c2cccs2)nc2cnc(Oc3ccccc3)nc2n1-c1ccccc1	6%	0%	-3.4%

mol	Cruzain inh noDet	StopGo reporter	Cruzain Triton
S=c1[nH]c2ccccc2s1	3%&-14%&-12%	31%[activator]	-2.0%&-7.8%&4.5%
CC1CCC2(OC1)OC1CC3C4CC[C@@H]5CC(O)CC[C@@]5(C)C4CC(=O)[C@]3(C)C1C2C (stereo partly drawn)	8%	15%	5.4%
N#Cc1ccc(CN2CC3(CCN(C(=O)c4csnn4)CC3)C2)cc1	3%	-6%	2.9%
COc1ccc(-c2nc3cnc(N4CCN(C)CC4)nc3n(Cc3cccc(OC)c3)c2=O)cc1	4%	7%	-2.9%
CN(Cc1ccco1)c1ncnc2ccc(-c3cccc(NS(C)(=O)=O)c3)cc12	-10%	-29%	-12%
COc1cc2c(cc1OC)Cc1cc(OC)c(OC)cc1Cc1cc(OC)c(OC)cc1C2	7%	3%	0.9%
Cc1noc(C)c1C(=O)N1CCC2(CC1)CN(Cc1cc(C(F)(F)F)cc(C(F)(F)F)c1)C2	7%	-5%	4.5%
CC[C@@](N)(C(=O)O)c1ccc(C(=O)O)cc1	-1%	-2%	3.0%
CS(=O)(=O)Nc1cccc(-c2cncnc2NCc2cccs2)c1	3%	-12%	-0.2%
COC(=O)N1CCC[C@@]2(CCN(C(=O)Nc3cccc(C#N)c3)C2)C1	4%	-16%	2.9%
COc1ncc2nc(-c3ccccc3)c(=O)n(CCC#N)c2n1	-14%	6%	-15%
COc1ccc(-n2c(=O)c(CCc3ccccc3)nc3cnc(OC)nc32)cc1	5%	24%	-5.3%

mol	Cruzain inh noDet	StopGo reporter	Cruzain Triton
CCC(=O)N[C@@H]1CCc2cccc(OC)c2C1	7%	-6%	0.8%
COc1cccc(Cn2c(=O)c(-c3cccs3)nc3cnc(Nc4cccc(OC)c4)nc32)c1	-17%	-8%	-1.7%
O=C(NCCCCCCNC(=O)ON=C1CCCCC1)ON=C1CCCCC1	5%	2%&6%	0.0%
O=C(c1ccncc1)N1CCC2(CC1)CCN(c1ncccn1)CC2	-6%	-9%	2.0%
COc1ccc(C(=O)N2CCC3(CC2)CCN(c2ncccn2)CC3)cc1	11%	-13%	-0.6%
Cc1nc2cnc(N3CCNCC3)nc2n(CCC#N)c1=O	u	-6%	-17%
CCNc1ncc2nc(CCc3ccccc3)c(=O)n(C)c2n1	11%	26%	-12%
CN(C)c1nc(-c2ccoc2)nc2ccccc12	-8%	-10%	1.4%
